eIF4H FP inh – inhibitors of RNA binding by human eIF4H. Q15056. eIF4H fluorescence polarization binding assay. inhibition, % at 35 µM. 290,000 compounds, 0.94% hits;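 active means 50% or more with normal probe brightness, or confirmed in later tests; inconclusive means above 50% with abnormal brightness, or retests that disagree; inactive means below 50% or failed in later tests; about a fifth of its hits are not listed in these tables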;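 further: calls also rest on retests at 20 µM and on dose response follow-up; 0% = protein and probe with vehicle and 100% = probe without protein; strong numbers were not always called active; many hits fall short of the cut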
MT1-MMP act inh – inhibitors of human MT1-MMP activation; P50281; HT1080 RFP-PRO-GFP cells, GFP/RFP ratio fluorescence, overnight; percent of plate control window, DMSO zero; GFP/RFP ratio change, % at 20 µM; 360,000 compounds, 0.061% hits;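 active means GFP/RFP ratio change of at least 30% with cell ATP level not reduced by more than half and red fluorescence within 50% of control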; further: strong numbers were not always called active
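Assay system: HT1080 RFP-PRO-GFP cells | Dosing: 20 µM single dose, 1% DMSO | Incubation: Cells overnight before dosing, compound overnight, 37 °C, 5% CO2 | Evaluation: GFP/RFP fluorescence ratio | Control set: DMSO-only wells and HT1080 RFP-L50D-GFP cell wells as references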
Env fusion inh – inhibitors of HIV Env-mediated cell fusion. inhibition, % at 12.3 µM. HeLa-JRFL Env/CEM21 cell fusion, luciferase. 360,000 compounds, 1.1% hits;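 active means mean replicate inhibition score of at least 50 and every replicate individually at or above 50; inconclusive means only one of the two criteria met; inactive means mean below 50 and not all replicates reaching 50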;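 further: 0% = plate neutral controls and 100% = maraviroc near 300 nM; one replicate is shown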
PABP polyA inh – PABP-poly(A) binding inhibition; inhibition, % at 35 µM; 290,000 compounds, 1% hits; PABP-poly(A) RNA binding, fluorescence polarization; P11940; AID 2014;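 active means 50% or more with normal probe brightness, or confirmed in later tests; inconclusive means above 50% with abnormal brightness, or retests that disagree; inactive means below 50% or failed in later tests; about a fifth of its hits are not listed in these tables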;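 further: calls also rest on retests at 20 µM and on dose response follow-up; controls were probe without protein and protein plus probe with vehicle; some compounds called inactive have numbers as strong as hits; many hits fall short of the cut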
Target sequence (P11940 whole entry, looked up): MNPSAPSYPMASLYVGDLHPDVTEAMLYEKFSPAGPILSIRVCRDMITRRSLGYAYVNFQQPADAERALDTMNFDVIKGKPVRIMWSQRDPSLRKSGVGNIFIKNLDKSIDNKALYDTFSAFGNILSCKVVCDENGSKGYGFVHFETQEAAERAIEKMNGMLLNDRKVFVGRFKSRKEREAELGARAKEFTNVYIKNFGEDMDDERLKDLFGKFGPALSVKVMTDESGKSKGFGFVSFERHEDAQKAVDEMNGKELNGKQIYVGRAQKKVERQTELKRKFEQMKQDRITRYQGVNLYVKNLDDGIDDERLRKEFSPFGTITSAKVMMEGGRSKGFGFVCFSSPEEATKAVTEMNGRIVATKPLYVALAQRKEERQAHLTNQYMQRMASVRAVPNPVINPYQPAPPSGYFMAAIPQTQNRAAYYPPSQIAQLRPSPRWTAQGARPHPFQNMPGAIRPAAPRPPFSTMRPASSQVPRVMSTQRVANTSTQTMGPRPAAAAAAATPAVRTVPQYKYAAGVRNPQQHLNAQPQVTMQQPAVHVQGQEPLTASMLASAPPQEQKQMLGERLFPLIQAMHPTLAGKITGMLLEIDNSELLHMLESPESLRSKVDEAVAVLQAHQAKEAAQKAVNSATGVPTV
Rce1 inhib – blocks yeast Ras-converting enzyme | calls only | 290,000 compounds, 0.27% hits | Q03530 | AID 2563 | yeast membranes, quenched prenylated peptide cleavage fluorescence;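 active means fall in fluorescence gain of 50% or more versus controls, with final raw signal at or below 3038400; inconclusive means same 50% fall but final raw signal above 3038400; inactive means fall in fluorescence gain under 50%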;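 further: plate controls were neutral control wells for no effect and wells lacking membranes for full effect; tested at 10 µM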
CSC inhib – blocks cancer stem cells; 300,000 compounds, 1.1% hits; cancer stem cell-like cells viability, luminescence; inhibition, % at 7.5 µM; AID 2717;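 active means mean at 75% or more and at least half the replicates too; inconclusive means mean and replicates disagree; tested in HMLE shEcad cells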;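 further: 0% = median of negative and 100% = median of positive control wells; the first replicate is given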
UUG fidelity – yeast start codon fidelity modulation; AID 602363; activity score, % at 18.7 µM; 350,000 compounds, 0.13% hits; S. cerevisiae UUG-firefly luciferase reporter, luminescence/redox ratio;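 active means replicate mean at a twofold rise or more, about +100% in these data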;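 further: firefly luciferase made from a UUG start codon reports start codon fidelity; reporter light over untreated wells divided by growth signal over untreated wells; some hits fall short of that in this replicate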
MT1-MMP act inh RFP – also measured in MT1-MMP act inh; calls as there; RFP signal change, %; measured here: RFP expression control read;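 0 = vehicle wells; hits needed this value within 50% of zero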
Starred values were filed as active, the others as inactive; i = inactive; ? = inconclusive; nt = not tested or not shown; & = joins results of further samples.

no.	SMILES	eIF4H FP inh	MT1-MMP act inh	MT1-MMP act inh RFP	Env fusion inh	PABP polyA inh	Rce1 inhib	CSC inhib	UUG fidelity
1	Cc1ccc(NC(=O)CSc2nc3ccccc3nc2N2CCCC2)cc1	-4	0	-5	-2	-2	i	23	5
2	CCN1CCN(CCCNC(=O)c2csc3c2CCCCC3)CC1	7	7	4	nt	10	i	8	-8
3	CCN(CC(=O)NCc1cccs1)C(=O)c1ccc(S(=O)(=O)Nc2cccc(C)c2C)cc1	1	0	-5	nt	-4	i	-6	15
4	Cc1cccc(CCNC(=O)C2CCCN(S(=O)(=O)c3cccc4nsnc34)C2)c1 (stereo not given)	-6	9	3	-29	4	i	-3	-43
5	CCOC(=O)C1=C(C)NC(C)=C(C(=O)OCC)C1C(=O)OCC(=O)N1CC(C)OC(C)C1 (stereo not given)	nt	-2	4	-6	nt	nt	-3	27
6	O=C(CCN1C(=O)S/C(=C\c2cccs2)C1=O)NC1=NCCS1	-3	-1	3	3	2	i	6	-10
7	C=CCNC(=S)Nc1cccc(N)c1	-6	-1	0	15	-2	i	-12	-27
8	COC(=O)Cc1[nH]nc2c1C(C1C=CCCC1)C(C#N)=C(N)O2 (stereo not given)	4	-2	-2	nt	-10	i	-2	-13
9	CSc1cccc(NS(=O)(=O)c2ccc(-c3coc(C)n3)cc2)c1	nt	0	-9	-18	nt	i	-16	-23
10	CC(=O)NC1=NN(C(C)=O)C(C)(CS(=O)(=O)c2ccc3ccccc3c2)S1 (stereo not given)	5	-1	3	nt	3	i	6	-11
11	CC(=O)c1ccc(OCc2cc(C(=O)N(C)Cc3ncc(C)[nH]3)no2)cc1	-11	-8	-2	-9	12	i	-19	-20
12	CC(C)c1onc(C(=O)NCc2cccs2)c1[N+](=O)[O-]	28	-4	-1	-2	0	i	-5	nt
13	O=c1[nH]ncn1-c1ccc(Br)cc1	-9	-2	0	23	-7	i	2	-13
14	COC(=O)CCN(C(=O)c1cc(OC)c(OC)c(OC)c1)c1ccccn1	-10	2	1	nt	-2	i	nt	-1
15	Cc1ccc2sc(N(CCCN(C)C)C(=O)c3ccc(S(=O)(=O)N4CCc5ccccc5C4)cc3)nc2c1C	nt	1	-1	nt	nt	i	15	-7
16	CCCCn1c(N)c(N(CCOC)C(=O)c2ccc3c(c2)OCCO3)c(=O)[nH]c1=O	nt	4	6	nt	nt	i	-10	nt
17	O=C(Nc1n[nH]c(C(F)(F)F)n1)C1CC1	-4	1	1	3	0	i	-11	-6
18	CCOC(=O)c1cc(S(=O)(=O)NCCc2ccccc2)cn1C	nt	-1	2	2	nt	i	-9	3
19	CCCC(C(=O)O)n1c(O)c(C=C2N=c3ccccc3=N2)sc1=S (stereo not given)	8	-5	3	15	-4	i	2	nt
20	Cc1ccc(S(N)(=O)=O)cc1NC(=O)/C=C/c1cccs1	-10	-2	2	nt	-8	i	9	-9
21	CC(C)CC(C(=O)OCC(=O)c1c(N)n(C)c(=O)n(C)c1=O)N1C(=O)c2ccccc2C1=O (stereo not given)	-10	2	3	nt	2	i	7	nt
22	Cc1n[nH]c(C)c1S(=O)(=O)N1CCCCCC1	-9	-2	-2	nt	1	i	0	-13
23	Cc1cc(C)c(S(=O)(=O)NC2CC(C)(C)NC(C)(C)C2)cc1Br	14	-3	-2	3	15	i	nt	-20
24	CCC1=Nc2cc(C(=O)N3CCCCC3)ccc2Sc2ccc(C)cc21	-10	-3	-4	-9	-14	i	-5	17
25	Cc1nn(-c2ccccc2)c2c1C(=O)N(Cc1ccccc1)C(=O)C(C)(C)C2	3	-1	0	nt	3	i	1	-9
26	Cn1ccsc1=NC(=O)c1ccc(S(=O)(=O)C(F)F)cc1	-5	1	1	-57	-5	i	-3	-10
27	Nc1cc(=O)[nH]n1C1CCCC1	4	-1	-1	-5	7	i	-9	-4
28	O=C(CC(=O)c1ccccc1)Nc1cc(C(F)(F)F)ccc1Cl	-4	-7	-3	nt	-4	i	7	-24
29	COc1ccccc1OCCn1ccnc1	-8	-1	0	-8	10	i	3	-27
30	CCCCn1cnc2c(c(-c3ccccc3)c(-c3ccccc3)n2Cc2ccco2)c1=N	-3	6	3	11	-11	i	87*	-5
31	O=C(CNC(=O)c1ccc(Cl)cc1Cl)OCN1C(=O)c2ccccc2C1=O	nt	-5	-3	0	nt	i	-9	nt
32	Cc1csc(SCc2nc3scc(-c4ccccc4)c3c(=O)[nH]2)n1	49	0	3	17	?	i	23	-9
33	O=[N+]([O-])c1cc(/C=N/n2c(-c3cccnc3)n[nH]c2=S)ccc1Cl	-3	3	2	14	2	i	0	nt
34	CC1(C)Cc2c(sc(NC(=O)COc3ccc(Cl)cc3)c2C(N)=O)C(C)(C)N1	-1	8	3	-7	3	i	-2	-7
35	Cc1ccc(-c2nc(CS(=O)CC(=O)NCc3ccc4c(c3)OCO4)c(C)o2)cc1 (stereo not given)	-7	-2	2	nt	1	i	76*	0
36	O=C(CCNC(=O)c1ccccc1Cl)Nc1nc(-c2ccccc2Cl)cs1	3	-5	-5	9	2	i	14	-4
37	O=C(Nc1nnc([C@@H]2C[C@H](O)[C@@H](CO)O2)s1)c1c(F)cccc1F	nt	-1	3	8	nt	nt	nt	-19
38	Cn1nccc1C(=O)Nc1ccc2c(c1)OCCO2	-4	-1	1	-22	-9	i	nt	nt
39	COc1ccc(C(=O)NNC2=NC(C)(C)Cc3ccccc32)cc1	1	-3	-1	nt	5	i	-7	nt
40	C[C@H](CO)N1C[C@H](C)[C@@H](CN(C)S(C)(=O)=O)Oc2ccc(NC(=O)Nc3ccccc3)cc2C1=O	nt	3	2	7	nt	nt	nt	-8&-12
41	CCN(CC)c1nc2c(c(=O)[nH]c(=O)n2C)n1Cc1ccccc1	2	-1	-2	0	3	i	-8	3
42	CCn1c(COc2ccccc2)nnc1SCC(=O)C(C)(C)C	7	1	-2	nt	8	i	-14	0
43	COc1cc(NC(=O)C(=O)NNC(=O)C2CCCCC2)c(OC)cc1Cl	50	1	1	nt	-5	i	6	nt
44	COc1ccccc1OCC(=O)NN1Cc2ccccc2C1=N	-13	2	1	-13	5	i	nt	-16
45	CCOc1cccc(CN2CCC(Oc3ccc(C(=O)N4CCCC4)cc3)CC2)c1	0	-5	-1	2	-4	i	-13	-1
46	COc1ccc(NC(=S)NCc2ccccc2)c(OC)c1	-7	-1	-2	-48	7	i	-8	-8
47	Fc1ccc(-c2nnc(CSc3nnc(-c4ccc5c(c4)OCO5)o3)o2)cc1	-18	-2	5	-21	-13	i	-14	nt
48	CCCc1[nH]nc2c1C(c1ccc(OCCN3CCOCC3)c(OCC)c1)C(C#N)=C(N)O2 (stereo not given)	-9	-1	-6	nt	-18	i	-15	-3
49	COc1ccc(CCC(C)Nc2ccc(F)cc2)cc1 (stereo not given)	10	6	9	nt	4	i	-11	-9
50	CN(C)c1ccc(C(=O)/C=C/c2ccc(Br)cc2)cc1	-10	-3	-3	-11	-12	i	25	-9
51	CCc1cccc(NC(=O)CN2C(=O)NC3(CCCCCCC3)C2=O)c1	-14	6	4	-52	-3	i	1	-11
52	O=C(O)C1CC(=O)N(c2ccc(OCc3ccccc3Cl)cc2)C1 (stereo not given)	5	3	6	nt	19	i	-6	-9
53	Cc1cccn2c(=O)c3cc(C(=O)NCc4ccco4)c(=N)n(CCOCCO)c3nc12	nt	-7	-1	nt	nt	i	-5	-2
54	Cc1cc(C)c(CN2CCC(N3CCC(C(=O)NCC4CCCO4)CC3)CC2)cc1C (stereo not given)	-14	2	3	0	3	i	9	-4
55	CCCCn1c(CCCNC(=O)c2ccco2)nc2ccccc21	-4	-1	-2	18	-13	i	-4	-7
56	CCN1CCN(CC(=O)Nc2nc3ccccc3s2)CC1	13	-1	3	-3	19	i	-8	-5

The listing continues.
no.	SMILES	eIF4H FP inh	MT1-MMP act inh	MT1-MMP act inh RFP	Env fusion inh	PABP polyA inh	Rce1 inhib	CSC inhib	UUG fidelity
57	c1ccc(NC(c2ccccc2)c2ccncc2)cc1 (stereo not given)	-2	2	2	-14	18	i	-4	-16
58	CCn1ccc(C(=O)Nc2ccccc2Cl)n1	5	-1	-9	-43	10	i	-6	nt
59	COC(=O)c1cc(S(=O)(=O)N2CCN(C(=O)c3ccco3)CC2)cn1C	-1	-1	1	-2	-5	i	-19	-16
60	COc1ccc(CNC(=O)c2cc3cccc(O)c3oc2=N)cc1	41	-8	5	-7	27	i	0	-12
61	COCCNC(=S)N1CCCN(c2nc3cc(C)ccc3cc2C#N)CC1	5	1	-2	6	13	i	12	-17
62	COc1cccc(/C=N/N2CCOCC2)c1O	-15	0	9	-37	-8	i	1	nt
63	CC(=O)Nc1ccc(S(=O)(=O)Nc2cc(C)cn(Cc3ccccc3)c2=O)cc1	-4	7	-6	nt	1	i	-7	-8
64	Cc1nn(-c2ccc(Cl)cc2)c2sc(C(=O)c3c(N)n(C)c(=O)n(C)c3=O)cc12	-21	-2	6	9	-9	i	-6	-15
65	O=C(CCN1C(=O)C2CC=CCC2C1=O)Nc1cc(C(F)(F)F)ccc1N1CCCC1 (stereo not given)	nt	-1	-4	11	nt	i	-1	5
66	CC(C)CN(C(=O)COC(=O)C(C)N1C(=O)c2ccccc2C1=O)c1c(N)n(Cc2ccccc2)c(=O)[nH]c1=O (stereo not given)	nt	3	7	2	nt	i	-1	nt
67	COc1ccc(Cl)cc1NC(=S)NNC(=O)C1(C)CC1(Cl)Cl (stereo not given)	10	3	0	-2	-3	i	8	-10
68	C=CCO/N=C(\C)c1c(O)c(C)c(-c2ccccc2)n(-c2ccccc2)c1=O	4	7	9	9	7	i	nt	0
69	O=C(CN1C(=O)C2CC=CCC2C1=O)NCC(=O)Nc1ccc(F)c(F)c1F (stereo not given)	-6	1	3	0	28	i	-19	nt
70	Cc1ccc2c(c1)NC(=O)C(N1CCOCC1)(C(F)(F)F)O2 (stereo not given)	-12	2	1	nt	-11	i	-9	-12
71	COc1ccc(CCNC(=O)CCSc2nc(-c3ccco3)cc(C(F)(F)F)n2)cc1OC	-2	-3	-1	nt	8	i	-6	18
72	CCNc1ccccc1C(=O)O	-5	-2	6	nt	9	i	-10	-13
73	COC(=O)Nc1nc(-c2cc(Cl)ccc2Cl)cs1	1	0	5	1	-6	i	nt	-2
74	O=C(CCNS(=O)(=O)c1ccc(Br)s1)NCc1ccc(F)cc1	9	4	-2	11	-3	i	-8	nt
75	O=C(N/N=C/c1ccncc1)c1cccs1	2	1	0	nt	6	i	1	-5
76	O=C(/C=C/c1c(Cl)cccc1Cl)NCc1ccco1	7	1	1	-4	-10	i	-8	nt
77	O=C(COC(=O)c1ccc[nH]c1=O)NCCc1ccc(F)cc1	-1	-1	4	-6	5	i	-19	nt
78	Cc1c(NC(=O)CN2C(=O)NC(C)(c3ccc(OC(F)F)cc3)C2=O)c(=O)n(-c2ccccc2)n1C (stereo not given)	nt	0	3	nt	nt	i	-14	nt
79	O=C(Nc1ccccc1F)NC1CC1	-9	1	-2	13	-3	i	1	-4
80	CC(=O)Nc1cc(-c2cccc(C(=O)N(C)C)c2)cn2c(-c3ccc(F)c(Cl)c3)cnc12	nt	-11	-4	19	nt	nt	nt	-6
81	O=C(CCCCCCCC(=O)c1ccccc1)c1ccccc1	-5	-3	-4	7	-5	i	2	1
82	COc1ccc(C)cc1NC(=O)c1ccoc1C	0	0	5	nt	12	i	16	-7
83	O=C(COc1ncnc2sccc12)NC1CCCc2ccccc21 (stereo not given)	0	0	-2	-12	0	i	-2	nt

Compound activity deposited in PubChem by several laboratories.

A portion of the library; rates above refer to the full screens.
